Assay outcomes: PubChem BioAssay, Broad Institute
NOMO-1 viab: STK33 inhibitor candidate reducing NOMO-1 cell viability. inhibition, % (no concentration beside the values). NOMO-1 AML viability, CellTiter-Glo luminescence, 72 h. 37,000 tested, 7.5% active;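 active means most replicates above 80%; inconclusive means exactly half above 80%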;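 further: wells of about 30 µL received 25 nL stock; 0% = median of vehicle wells and 100% = reference inhibitor level; the first replicate is given; inactives centre near 10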
Numbers without * were called inactive; ? = inconclusive. Only part of the results is shown, so the mix of outcomes need not match the whole.

smiles	NOMO-1 viab
C[C@@H]1CN([C@@H](C)CO)C(=O)c2cc(NC(=O)c3ccncc3)ccc2O[C@@H]1CN(C)Cc1ccccc1	-14
O=C(Cn1cc(C(=O)c2ccccc2F)c2ccccc21)Nc1cccc(C(F)(F)F)c1	45
C[C@H](CO)N1C[C@H](C)[C@H](CN(C)C(=O)Nc2ccc3c(c2)OCO3)Oc2c(NC(=O)Nc3ccc(F)cc3)cccc2C1=O	37
CCOc1ccc(NC(=O)CSc2nc3nc(C)cc(C)n3n2)cc1	34
C[C@@H]1CN([C@H](C)CO)C(=O)c2cc(NC(=O)Cc3cn(C)c4ccccc34)ccc2O[C@@H]1CN(C)S(=O)(=O)c1ccccc1	-2
COc1cc2c(cc1OC)CN(C(=O)Cn1c(C)cc(C)c(C#N)c1=S)CC2	-21
C[C@H]1CN([C@@H](C)CO)C(=O)Cc2cc(NC(=O)C3CC3)ccc2O[C@@H]1CN(C)C(=O)Nc1ccc(F)cc1	4
C[C@@H]1CN([C@H](C)CO)C(=O)c2cccc(NC(=O)CCCCCC(=O)Nc3ccccc3N)c2O[C@@H]1CN(C)S(=O)(=O)c1ccc(F)cc1	72
COc1ccc([N+](=O)[O-])cc1NC(=O)CN(c1ccccc1Cl)S(C)(=O)=O	17
C[C@@H]1CN([C@@H](C)CO)C(=O)c2cc(NC(=O)NC3CCCCC3)ccc2O[C@H]1CN(C)Cc1ccc(Oc2ccccc2)cc1	54
CS/C(NC1CCCCC1)=C(/C#N)S(=O)(=O)c1ccc(Cl)cc1	38
CCc1c(O)nc(SCC(N)=O)n(-c2ccccc2F)c1=O	2
Cc1noc(C)c1S(=O)(=O)Nc1ccc2c(c1)CC(=O)N([C@H](C)CO)C[C@@H](C)[C@@H](CN(C)C(=O)Nc1ccc(F)cc1)O2	9
Cn1c(SCC(=O)Nc2cc(C(F)(F)F)ccc2Cl)nnc1-c1ccc(Br)cc1	-8
C[C@H](CO)N1C[C@H](C)[C@H](CN(C)Cc2ccc3c(c2)OCO3)Oc2ccc(NS(=O)(=O)c3cn(C)cn3)cc2C1=O	-2

The list goes on; the last five above are carried over.
smiles	NOMO-1 viab
CS/C(NC1CCCCC1)=C(/C#N)S(=O)(=O)c1ccc(Cl)cc1	38
CCc1c(O)nc(SCC(N)=O)n(-c2ccccc2F)c1=O	2
Cc1noc(C)c1S(=O)(=O)Nc1ccc2c(c1)CC(=O)N([C@H](C)CO)C[C@@H](C)[C@@H](CN(C)C(=O)Nc1ccc(F)cc1)O2	9
Cn1c(SCC(=O)Nc2cc(C(F)(F)F)ccc2Cl)nnc1-c1ccc(Br)cc1	-8
C[C@H](CO)N1C[C@H](C)[C@H](CN(C)Cc2ccc3c(c2)OCO3)Oc2ccc(NS(=O)(=O)c3cn(C)cn3)cc2C1=O	-2
C[C@H]1CN([C@@H](C)CO)C(=O)c2cc(NC(=O)Cn3cnnn3)ccc2O[C@@H]1CN(C)Cc1ccc(Oc2ccccc2)cc1	27
Cc1ccc(S(=O)(=O)N(C)C[C@@H]2Oc3ccc(NC(=O)CCN4CCOCC4)cc3C(=O)N([C@@H](C)CO)C[C@@H]2C)cc1	8
C[C@@H]1CN([C@H](C)CO)C(=O)Cc2cc(NC(=O)C3CCCCC3)ccc2O[C@@H]1CN(C)S(=O)(=O)c1ccc(Cl)cc1	6
CC(=O)c1cccc(N(CC(=O)Nc2ccc(Br)cc2F)S(C)(=O)=O)c1	-7
Cc1ccc(S(=O)(=O)Nc2ccc3c(c2)C(=O)N([C@@H](C)CO)C[C@@H](C)[C@@H](CN(C)S(=O)(=O)c2cccs2)O3)cc1	-14
C[C@@H]1CN([C@@H](C)CO)C(=O)Cc2cc(NS(=O)(=O)c3cccs3)ccc2O[C@@H]1CN(C)Cc1ccc(Cl)c(Cl)c1	61
COc1ccc(NC(=O)Nc2ccc3c(c2)CC(=O)N([C@@H](C)CO)C[C@@H](C)[C@@H](CN(C)S(=O)(=O)c2cn(C)cn2)O3)cc1	3
C[C@@H]1CN([C@H](C)CO)C(=O)c2cc(NC(=O)C3CC3)ccc2O[C@@H]1CN(C)Cc1ccccc1	19
C[C@@H]1CCCCO[C@H](CN(C)C(=O)c2ccncc2)[C@@H](C)CN([C@H](C)CO)C(=O)c2cc(NC(=O)c3ccccc3)ccc2O1	-3
O=C(OC[C@@]1(O)[C@H]2[C@H](O[C@@H]3O[C@H](CO)[C@@H](O)[C@H](O)[C@H]3O)OC=C[C@H]2[C@H](O)[C@H]1Cl)c1ccccc1	-1
CNC[C@@H]1Oc2ccc(NS(C)(=O)=O)cc2C(=O)N([C@H](C)CO)C[C@H]1C	-20
C[C@@H]1CN([C@H](C)CO)C(=O)Cc2cc(NC(=O)Cc3cn(C)c4ccccc34)ccc2O[C@H]1CN(C)Cc1ccccc1	27
N#Cc1c(NC(=O)Cn2ccc([N+](=O)[O-])n2)sc2c1CCC2	9
C[C@@H]1CN([C@@H](C)CO)C(=O)c2cc(NS(=O)(=O)c3cn(C)cn3)ccc2O[C@@H]1CN(C)S(=O)(=O)c1cccs1	7
C[C@H](CO)N1C[C@H](C)[C@H](CN(C)S(=O)(=O)c2cccs2)Oc2ccc(NC(=O)C3CCCCC3)cc2CC1=O	-1
C[C@@H]1CN([C@H](C)CO)C(=O)Cc2cc(N(C)C)ccc2O[C@@H]1CN(C)Cc1ccncc1	5
Cc1nc(N)sc1-c1nnc(SCC(=O)Nc2ccccc2C(F)(F)F)n1C	-3
C[C@@H]1CCCCO[C@H](CN(C)Cc2ccncc2)[C@@H](C)CN([C@H](C)CO)C(=O)c2cc(NS(=O)(=O)c3ccccc3)ccc2O1	14
Cc1ccc(S(=O)(=O)N(C)C[C@H]2Oc3ccc(NC(=O)C4CCCCC4)cc3C(=O)N([C@@H](C)CO)C[C@H]2C)cc1	12
C[C@@H]1CN([C@@H](C)CO)C(=O)c2cc(NC(=O)CCN3CCOCC3)ccc2O[C@H]1CN(C)Cc1ccc(C(=O)O)cc1	-19
C[C@@H]1CN([C@H](C)CO)C(=O)c2cccc(NC(=O)Nc3ccccc3)c2O[C@H]1CN(C)C(=O)Nc1ccc(C(F)(F)F)cc1	25
Cc1cccc(-c2nnc(SCC(=O)Nc3cc(C(F)(F)F)cc(C(F)(F)F)c3)n2C)c1	8
Cc1ccc(S(=O)(=O)N(C)C[C@@H]2Oc3ccc(NC(=O)C4CCCCC4)cc3CC(=O)N([C@H](C)CO)C[C@@H]2C)cc1	23
Brc1cccc(CNc2nc3ccccc3n2CCN2CCOCC2)c1	9
COc1ccc(NC(=O)Nc2cccc3c2O[C@@H](CN(C)S(=O)(=O)c2ccc(C)cc2)[C@H](C)CN([C@@H](C)CO)C3=O)cc1	9
COC(=O)c1sc(NC(=O)COc2ccc(C(C)C)cc2)c(C#N)c1C	46
CCc1ccc(C(Nc2ccccn2)c2cc(Cl)c3cccnc3c2O)cc1 (stereo unspecified)	123*
Cc1c(N=C2SCC(=O)N2/N=C\c2ccc(Br)cc2)c(=O)n(-c2ccccc2)n1C	9
C[C@H](CO)N1C[C@H](C)[C@@H](CN(C)Cc2ccc(Oc3ccccc3)cc2)Oc2c(NC(=O)C3CCCCC3)cccc2C1=O	88*
Cc1ccc(C)c(NC(=O)CSc2n[nH]c(-c3ccncc3)n2)c1	9
C[C@H](CO)N1C[C@H](C)[C@H](CN(C)S(=O)(=O)c2cn(C)cn2)Oc2ccc(NC(=O)CCN3CCOCC3)cc2C1=O	0
COc1ccc(S(=O)(=O)Nc2cccc3c2O[C@H](CN(C)Cc2ccc(Oc4ccccc4)cc2)[C@H](C)CN([C@H](C)CO)C3=O)cc1	60
CCOc1ccc2nc(C34CC5CC(CC(C5)C3)C4)ccc2c1	17
O=C(Nc1ccc(-c2nc3ccccc3o2)c(O)c1)c1cc(-n2cnnc2)ccc1Cl	?
O=C(CSc1nnc(-c2ccncc2)n1-c1ccc(Cl)cc1)Nc1ccc(F)cc1F	10
COc1ccc(NC(=O)Cc2nc(-c3cc4ccccc4oc3=O)cs2)cc1	?
NC(=O)C1CCN(C(=O)CSc2ccccn2)CC1	13
CC(C)NC(=O)Nc1ccc2c(c1)C(=O)N([C@H](C)CO)C[C@H](C)[C@H](CN(C)S(=O)(=O)c1cn(C)cn1)OCCCC[C@@H](C)O2	-9
O=S(=O)(c1ccccc1)c1ccc(S(=O)(=O)N2CCCCC2)s1	18
Cc1noc(C)c1S(=O)(=O)Nc1ccc2c(c1)C(=O)N([C@H](C)CO)C[C@@H](C)[C@@H](CN(C)Cc1ccc(Oc3ccccc3)cc1)O2	105*
C[C@H](CO)N1C[C@H](C)[C@H](CN(C)CC2CCCCC2)Oc2ccc(NC(=O)CCN3CCOCC3)cc2C1=O	-11
Cc1noc(C)c1S(=O)(=O)N(C)C[C@H]1OCCCC[C@@H](C)Oc2ccc(NC(=O)Nc3ccc4c(c3)OCO4)cc2C(=O)N([C@H](C)CO)C[C@@H]1C	36
COc1ccc(OC)c(NC(=O)c2ccc(CSc3ncnc4nc[nH]c34)cc2)c1	42
COC(=O)c1ccccc1NC(=O)c1ccc(NC(=O)COc2ccccc2)cc1	2
CCC(SC1=NCCS1)C(=O)Nc1ccc(NC(C)=O)cc1 (stereo unspecified)	22

Structures listed so far containing a nitro group on carbon, in the order listed:
smiles	NOMO-1 viab
COc1ccc([N+](=O)[O-])cc1NC(=O)CN(c1ccccc1Cl)S(C)(=O)=O	17
N#Cc1c(NC(=O)Cn2ccc([N+](=O)[O-])n2)sc2c1CCC2	9

The list goes on:
smiles	NOMO-1 viab
Cc1ccc(S(=O)(=O)Nc2ccc3c(c2)C(=O)N([C@H](C)CO)C[C@@H](C)[C@H](CN(C)C(=O)NC(C)C)O3)cc1	-2
C[C@@H]1CN([C@H](C)CO)C(=O)c2cccc(NC(=O)Nc3ccc4c(c3)OCO4)c2O[C@@H]1CN(C)Cc1ccccc1	6
C[C@@H]1CN([C@H](C)CO)C(=O)Cc2cc(NS(=O)(=O)c3ccc(F)cc3)ccc2O[C@@H]1CN(C)S(=O)(=O)c1ccccc1	8
CCOC(=O)c1cnc(S/C=C/C(=O)c2ccc(C)cc2)nc1N	120*
C[C@@H]1CN([C@H](C)CO)C(=O)c2cc(NC(=O)Nc3cccc4ccccc34)ccc2O[C@@H]1CN(C)C	-19
CSc1sc(-c2ccon2)c(-c2ccco2)c1C#N	13
Cc1ccc(OCC(=O)Nc2cccc(-c3nc4cc(Cl)ccc4o3)c2C)c(C)c1	15
Cc1cc(C(=O)Sc2cccc(C(F)(F)F)c2)nn1C(C)(C)C	55
Cc1ccc(S(=O)(=O)Nc2ccc3c(c2)C(=O)N([C@@H](C)CO)C[C@H](C)[C@@H](CN(C)Cc2ccc(Oc4ccccc4)cc2)O3)cc1	106*
C[C@@H]1CN([C@@H](C)CO)C(=O)Cc2cc(NS(=O)(=O)c3ccc(F)cc3)ccc2O[C@@H]1CN(C)S(=O)(=O)c1ccc(F)cc1	4
C[C@H](CO)N1C[C@H](C)[C@H](CN(C)S(C)(=O)=O)Oc2ccc(NC(=O)Nc3ccccc3)cc2CC1=O	23
COc1ccc(N(CC(=O)Nc2ccccc2F)S(C)(=O)=O)cc1Cl	-4
Cc1noc(C)c1NC(=O)N(C)C[C@H]1Oc2c(NC(=O)Nc3cccc4ccccc34)cccc2C(=O)N([C@@H](C)CO)C[C@@H]1C	32
C[C@@H]1CN([C@@H](C)CO)C(=O)c2cccc(NC(=O)Nc3ccc(F)cc3)c2O[C@@H]1CN(C)Cc1ccc(Oc2ccccc2)cc1	58
Cc1cc(C(=O)Nc2cccc3c2O[C@@H](CN(C)C(=O)NC(C)C)[C@@H](C)CN([C@H](C)CO)C3=O)n(C)n1	-19
O=C(COc1ccccc1Cl)NCc1ccco1	-1
CC1(O)CC(=O)c2c(ccc3c2C(=O)c2cccc(O)c2C3=O)C1 (stereo unspecified)	95*
CCn1c(=O)cc(O)c2ccccc21	28
COc1ccc(S(=O)(=O)Nc2ccc3c(c2)C(=O)N([C@H](C)CO)C[C@@H](C)[C@@H](CN(C)Cc2ccc(Oc4ccccc4)cc2)O3)cc1	111*
Cc1cccc(-c2nnc(SCC(=O)Nc3cc(F)ccc3C)n2-c2ccccc2)c1	5
CCOC(=O)c1sc(NC(=S)N2CCN(c3ncccn3)CC2)c(C(=O)OCC)c1C	24
C[C@@H]1CCCCO[C@H](CN(C)Cc2ccc(C(F)(F)F)cc2)[C@@H](C)CN([C@H](C)CO)C(=O)c2cc(NS(=O)(=O)c3ccccc3)ccc2O1	95*
C[C@@H]1CN([C@H](C)CO)C(=O)c2cc(NS(=O)(=O)c3ccc(F)cc3)ccc2O[C@H]1CN(C)C(=O)Nc1ccc(C(F)(F)F)cc1	-11
COc1ccc(N(C(C)C(=O)Nc2ccc(Cl)cc2)S(C)(=O)=O)cc1 (stereo unspecified)	24
C[C@@H]1CN([C@@H](C)CO)C(=O)c2cc(NC(=O)CCC(F)(F)F)ccc2O[C@H]1CN(C)C(=O)Nc1ccc(C(F)(F)F)cc1	14
CCc1nc(-n2nnc3cc(C)c(C)cc32)c2c3c(sc2n1)CCCC3	32
COc1ccc(NC(=O)N(C)C[C@H]2Oc3c(NC(=O)c4ccc(-c5nccs5)cc4)cccc3C(=O)N([C@H](C)CO)C[C@H]2C)cc1	1
COc1ccc(Cl)cc1N(CC(=O)Nc1cccc(Cl)c1C)S(C)(=O)=O	13
C[C@@H]1CN([C@H](C)CO)C(=O)c2cccc(NS(C)(=O)=O)c2O[C@H]1CN(C)Cc1ccc(-c2ccccc2)cc1	-7
